RanGTP-Imp inh = inhibitors of RanGTP-importin-beta interaction, primary screen, biochemical, FRET, CFP-Ran, YFP-importin-beta, homogeneous; cell-free CFP-Ran/YFP-importin-beta FRET ratio; AID 2216; actives 1.1% (n = 300,000); inhibition, % (concentration not given with the values);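 active means most replicates above 15%; inconclusive means exactly half above 15%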;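 further: 0% = DMSO wells and 100% = Ran loaded with GDP instead of GTP; wells of about 40 µL received 100 nL stock; the first replicate is given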
E coli growth = blocks Escherichia coli growth; OD600, 23 h; hits give low values; OD600 absorbance (concentration not given with the values); actives 0.21% (n = 330,000); AID 1053175;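 active means OD600 absorbance below the run mean of sample wells minus 3.6 SD, in any replicate, cut at about 0.56 in these data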;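 further: stock transfer was 300 nL into about 60 µL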
HNF4A DNA FP = change in binding of human HNF4 alpha to DNA; actives 0.3% (n = 360,000); activity change, % at 10 µM; AID 1224865; P41235; HNF4a-FITC DNA binding, fluorescence polarization, 1 h; in the data active means activity change above about 30%, passing the limit was not always enough;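 further: controls were the assay level and a saturating level of protein; the project sought stronger binding though the title names inhibitors; some compounds called inactive have numbers as strong as hits; positive values seem to mean higher polarization but the record does not say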
UCH37 inh = inhibitors of human deubiquitinating enzyme UCH37; Q9Y5K5; purified proteasome/UCH37, Ub-AMC cleavage fluorescence; inhibition, % (no concentration beside the values); actives 0.33% (n = 330,000);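 active means mean of two replicates above 20%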;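 further: 0% = compound-free wells with enzyme and 100% = wells lacking proteasome; stock transfer was 100 nL into about 20 µL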
Target sequence (Q9Y5K5 whole entry, looked up): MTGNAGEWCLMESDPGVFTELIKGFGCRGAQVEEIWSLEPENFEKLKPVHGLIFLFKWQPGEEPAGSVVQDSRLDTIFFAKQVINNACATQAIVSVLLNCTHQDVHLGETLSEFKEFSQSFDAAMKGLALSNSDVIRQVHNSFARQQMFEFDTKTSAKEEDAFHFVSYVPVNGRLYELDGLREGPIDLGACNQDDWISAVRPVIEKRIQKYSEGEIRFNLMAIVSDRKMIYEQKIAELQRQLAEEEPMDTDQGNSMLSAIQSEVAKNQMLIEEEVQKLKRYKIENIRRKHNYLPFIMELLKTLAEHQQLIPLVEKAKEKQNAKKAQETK
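System: Proteasome-associated human UCH37 deubiquitinase; Input: 0.15 nM proteasome in added enzyme buffer; Also added: Ub-AMC substrate from 1 µM stock; Incubation: 30 min compound-proteasome preincubation then 25 min substrate reaction, room temperature; Detection: fluorescence, ex 355 nm, em 460 nm; Read-out: % inhibition of Ub-AMC cleavage fluorescence; Benchmarks: no-proteasome and no-compound wells.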
Vif TR-FRET = HIV-1 Vif–A3G interaction blockers – biochemical, TR-FRET, GST-Vif 1-94, biotin-A3G peptide, dose response retest, primary screen (AID 1117319); TR-FRET GST-Vif / biotin-A3G peptide binding; higher % means a stronger effect; test concentration not given here; strong numbers were not always called active; inhibition, %, or IC50 in µM where a hit was titrated; actives 0.57% (n = 260,000);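 active means above the screen mean plus three standard deviations and confirmed in dose response; inconclusive means results disagree or hit not tested in dose response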;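 further: Vif residues 1-94 fused to GST binding biotinylated APOBEC3G peptide 110-148; 0% = full assay without inhibitor and 100% = GST in place of GST-Vif; retest series ran down from 100 µM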
MLL AF4-AF9 inh = blocks AF4 peptide binding to human AF9 | P42568 | inhibition, % at 10 µM | actives 0.47% (n = 350,000) | AlphaScreen, biotin-AF4 peptide binding to FLAG-AF9 | AID 651704;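 active means every replicate reaching a set inhibition limit, whatever the replicate mean, cut at about 25% in these data; inconclusive means mean inhibition reaches that limit but some replicates miss it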;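 further: 0% = plate neutral control median and 100% = total signal loss; the record names both 10 and 1 µM as test concentration; the first replicate is given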
Target sequence (P42568 whole entry, looked up): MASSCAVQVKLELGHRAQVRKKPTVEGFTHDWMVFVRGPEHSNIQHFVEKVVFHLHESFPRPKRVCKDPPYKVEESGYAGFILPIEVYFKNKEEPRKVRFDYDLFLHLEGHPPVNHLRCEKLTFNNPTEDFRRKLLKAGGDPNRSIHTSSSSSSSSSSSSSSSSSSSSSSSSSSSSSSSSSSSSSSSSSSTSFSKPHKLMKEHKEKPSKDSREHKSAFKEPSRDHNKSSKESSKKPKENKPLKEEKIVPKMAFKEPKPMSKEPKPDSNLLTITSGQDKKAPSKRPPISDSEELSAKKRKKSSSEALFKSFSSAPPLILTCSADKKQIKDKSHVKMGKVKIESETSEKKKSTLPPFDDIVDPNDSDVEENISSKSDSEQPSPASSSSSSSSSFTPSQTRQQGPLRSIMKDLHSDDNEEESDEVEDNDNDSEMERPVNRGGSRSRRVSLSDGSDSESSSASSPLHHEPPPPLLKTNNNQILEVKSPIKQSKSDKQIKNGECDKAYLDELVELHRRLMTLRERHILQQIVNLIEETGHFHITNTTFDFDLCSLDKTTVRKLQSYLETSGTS
FGF22 binding = shifts melting point of recombinant human FGF22. Q9HCT0. recombinant FGF22 thermal shift, SYPRO orange fluorescence; percent of sucrose octasulfate shift, DMSO zero. calls only at 9.99 µM. actives 1.5% (n = 340,000). AID 651658;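 active means melting point raised past a set limit in the mean and every replicate; inconclusive means no clear call; three in four hits are not shown here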
Target sequence (Q9HCT0 whole entry, looked up): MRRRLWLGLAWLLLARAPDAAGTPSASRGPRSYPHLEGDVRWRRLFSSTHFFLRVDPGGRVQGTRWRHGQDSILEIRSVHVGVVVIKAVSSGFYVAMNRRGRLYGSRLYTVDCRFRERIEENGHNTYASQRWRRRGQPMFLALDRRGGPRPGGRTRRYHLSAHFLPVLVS
The depositor's hits bear a star; i = inactive; ? = inconclusive; nt = not tested or not shown.

HNF4A DNA FP	Vif TR-FRET	UCH37 inh	RanGTP-Imp inh	E coli growth	FGF22 binding	MLL AF4-AF9 inh	canonical_smiles
2.8	-5.2%	nt	-1.4	nt	i	0.3	O=C(CCC(=O)Nc1ccc(F)cc1)N/N=C/c1cccc(Br)c1
0.9	5.4%	4.1	-2.6	0.692	nt	nt	O=C(Nc1ccc(F)cc1)c1ccc(-n2ccnc2)nc1
4.6	22.3%	2.4	-1.6	0.719	i	-4.5	COc1ccc2c(CC(=O)OCC(=O)Nc3cc(C)c(C)cc3[N+](=O)[O-])coc2c1
-3.4	1.6%	-3.5	1.0	0.705	i	-0.1	O=C(COc1cc2oc(=O)cc(-c3ccccc3)c2cc1Cl)NCCN1CCOCC1
3.3	-5.2%	2.7	2.0	0.645	i	1.2	CC(=O)Nc1ccc(NC(=O)c2ccc3c(c2)C(=O)N(c2ccccc2C)C3=O)cc1
0.1	nt	4.1	1.6	0.687	i	2.4	Cc1ccc(N(C(=O)c2cnccn2)C(C(=O)NC2CCCCC2)c2ccc(O)cc2)cc1 (centres undefined)
0.0	-4.4%	1.4	?	0.651	i	-9.0	S=C(NCc1ccco1)Nc1ccccn1
-2.4	29.1%	4.6	-1.3	0.685	i	-1.1	CCOC(=O)c1ccc(NC(=O)Cn2ccc([N+](=O)[O-])n2)cc1
0.2	5.1%	2.8	2.7	0.699	nt	nt	Cc1ccc(-n2c(C)c([N+](=O)[O-])c3ccc(O)c(CN(C)C)c32)cc1
0.4	-3.7%	3.8	2.1	0.615	i	5.8	O=C(Nc1ccc(Cl)cc1)N1CCCC(Cn2cccc2)C1 (centres undefined)
-5.0	-3.1%	5.5	nt	0.692	nt	-2.5	CCCCC[C@@H]1C=C(C(=O)O)[C@H](c2ccc(Cl)c(Cl)c2)N1S(=O)(=O)c1ccc(C)cc1
-0.9	2.1%	3.3	0.8	0.705	nt	nt	S=c1[nH]ncn1-c1ccccn1
-3.6	4.0%	8.1	2.1	0.699	nt	nt	CC(Oc1cccc(F)c1)C(=O)/C=C\N(C)C (centres undefined)
3.3	-0.5%	1.2	3.0	0.671	nt	nt	COc1ccc(CNC(=O)CSc2ccc(Br)cc2)cc1OC
2.0	nt	4.0	nt	0.642	i	0.2	CCC(c1ccc(O)cc1)C(CC)c1ccc(O)cc1 (centres undefined)
5.7	nt	nt	nt	nt	i	1.2	CN1C(=O)C(c2cn(C)c3ccccc23)(c2cn(C)c3ccccc23)c2cc(F)ccc21
9.3	1.9%	1.9	nt	0.656	i	?	CCOc1ccc(NC(=O)CN2CCCC2c2cccs2)cc1S(=O)(=O)N1CCCC1 (centres undefined)
-3.0	nt	-0.3	0.7	0.703	i	-8.3	CCN(CC(=O)NC(C)C)C(=O)[C@H](C)NC(=O)c1ccc(Br)cc1
0.6	?	-0.6	-15.3	0.727	nt	nt	COC(=O)c1cc2c(C)nn(-c3ccccc3)c2s1
-0.6	-2.3%	0.3	?	0.714	nt	nt	C=CCn1c(=O)c2ccccc2n2c(SCC(=O)N3CCCc4ccccc43)nnc12
0.2	-7.7%	1.4	-1.3	0.676	nt	nt	CC(=O)NC(Cc1ccccc1)C(=O)OCC(=O)c1ccc(Cl)cc1 (centres undefined)
1.9	-3.7%	2.1	0.8	nt	i	-0.8	NC(=O)C[C@@H]1NC(=O)CNC(=O)c2cc([N+](=O)[O-])cc(I)c2NCCC(C(N)=O)NC1=O (some centres undefined)
4.2	?	-1.0	1.1	0.733	nt	nt	CC(=O)c1c(C)nn(C(C)CC(=O)O)c1C (centres undefined)
-1.6	nt	3.7	-0.9	0.634	i	0.0	Cc1onc(-c2ccccc2Cl)c1C(=O)Nc1ccccc1O
-0.5	6.5%	5.6	1.0	0.671	i	-5.2	COc1ccc(OCCNC(=O)/C=C/c2ccc([N+](=O)[O-])cc2)cc1
-1.1	5.8%	-6.5	1.4	0.692	nt	nt	CCOCCCNc1ncnc2c1[nH]c1ccccc12
-5.1	nt	1.7	nt	0.661	i	0.9	O=C(Nc1ccc(OC(F)F)cc1)c1cc(S(=O)(=O)N2CCCCC2)ccc1N1CCOCC1
-2.1	-8.4%	2.4	3.2	0.664	i	-13.6	Cn1c(=O)c2c(nc(Cl)n2CC(=O)NC2(C#N)CCCCC2)n(C)c1=O
-1.5	29.7%	nt	nt	nt	nt	-0.7	Cc1noc(C)c1COc1cccc(C(=O)OC(C)C(=O)Nc2c(C)n(C)n(-c3ccccc3)c2=O)c1 (centres undefined)
0.7	1.8%	1.8	nt	0.69	i	2.1	CN(C(=O)COC(=O)c1ccccc1OCc1ccc(F)cc1)C1CCS(=O)(=O)C1 (centres undefined)
-2.6	3.0%	5.6	nt	0.665	i	2.8	Cc1cc(NC(=O)CSc2n[nH]c(-c3ccccc3Br)n2)no1
4.4	nt	3.8	?	0.688	nt	nt	Cc1ccc(O)c(CNn2cnnc2)c1
-2.6	2.1%	1.8	-0.8	0.725	nt	nt	Cc1cccc(Nc2nc(N)nc(CN3CCN(C)CC3)n2)c1
1.9	1.0%	-5.9	-8.2	0.679	i	0.6	c1ccc2c(-c3csc(-c4ccncc4)n3)c[nH]c2c1
-4.8	nt	0.0	-4.3	0.703	nt	nt	COc1cccc(/C=C/C(=O)c2ccc(NS(=O)(=O)c3ccc(C)cc3)cc2)c1
2.1	nt	6.6	3.8	0.71	i	-2.9	COc1cc(C(=O)NNC(=S)Nc2ccc(S(N)(=O)=O)cc2)cc(OC)c1OC
0.9	nt	-3.4	2.4	0.69	i	1.0	Cc1cccc(NC(=S)NCCc2ccc(S(N)(=O)=O)cc2)c1C
-41.0	-12.3%	-74.8	29.7*	0.706	i	9.3	Cc1ccc(S(=O)(=O)Nc2nc3ccccc3nc2Nc2cccc(S(=O)(=O)N3CCCC3)c2)cc1
2.5	-2.7%	nt	-3.9	nt	nt	nt	Fc1ccccc1COc1cccc(/C=N/n2cnnc2)c1
1.7	1.4%	5.6	2.2	0.626	i	-2.3	COc1cc(C2NC(=O)NC(c3ccccc3)=C2C(C)=O)cc([N+](=O)[O-])c1O (centres undefined)

Continued; the last 3 above are carried over.
HNF4A DNA FP	Vif TR-FRET	UCH37 inh	RanGTP-Imp inh	E coli growth	FGF22 binding	MLL AF4-AF9 inh	canonical_smiles
-41.0	-12.3%	-74.8	29.7*	0.706	i	9.3	Cc1ccc(S(=O)(=O)Nc2nc3ccccc3nc2Nc2cccc(S(=O)(=O)N3CCCC3)c2)cc1
2.5	-2.7%	nt	-3.9	nt	nt	nt	Fc1ccccc1COc1cccc(/C=N/n2cnnc2)c1
1.7	1.4%	5.6	2.2	0.626	i	-2.3	COc1cc(C2NC(=O)NC(c3ccccc3)=C2C(C)=O)cc([N+](=O)[O-])c1O (centres undefined)
-0.2	nt	nt	nt	nt	i	1.6	CC(=O)Oc1cccc(/C=N\NC(=O)C(=O)N/N=C/c2cccc(OC(C)=O)c2)c1
-0.3	nt	nt	-2.2	nt	i	-0.9	COc1ccc(/C(C)=N/NC(=O)CNC(=O)C(c2ccccc2)c2ccccc2)c(OC)c1
-3.1	11.8%	4.5	0.3	0.692	nt	nt	CCOC(=O)c1c(C)[nH]c(C)c1C(=O)COc1ccc(NC(=O)c2ccco2)cc1
0.1	24.2%	7.1	-4.2	0.728	i	-5.7	CN1CCN(S(=O)(=O)c2ccc3ccccc3c2)CC1
-0.8	-4.0%	-11.4	nt	0.67	i	0.7	O=C(NCCCN1CCOCC1)c1cc(-c2ccc(F)cc2)nc2ccccc12
6.0	-2.5%	4.1	-2.1	0.655	nt	nt	O=C(Cc1ccc(S(=O)(=O)N2CCOCC2)s1)Nc1ccc(S(=O)(=O)N2CCCCC2)cc1
0.0	-0.8%	-2.6	1.6	0.686	i	-4.8	COc1ccccc1NC(=O)N1CCCC1C(=O)Nc1ccc2c(c1)OCCO2 (centres undefined)
-0.7	4.0%	nt	0.7	nt	i	0.5	C/C(=N\NC(=O)c1cccc(S(=O)(=O)Nc2cccc(Cl)c2)c1)c1cccs1
-3.1	nt	nt	nt	nt	i	1.3	COc1ccccc1CNC(=O)C1(C)CCN1Cc1ccc(OC(F)(F)F)cc1 (centres undefined)
7.0	1.0%	0.0	-0.9	0.673	i	-0.1	Cc1cc2c(cc1S(=O)(=O)Nc1cccc(F)c1C)NC(=O)CO2
-2.8	nt	1.0	-1.3	0.695	nt	nt	CCOC(=O)c1ccc(NC(=S)NN2CCOCC2)cc1
-2.0	12.4%	5.9	nt	0.668	i	4.5	CC(C(=O)Nc1ccc2c(c1)OCO2)N1CCC(N2CCCCC2)CC1 (centres undefined)
-0.8	-0.3%	2.3	nt	0.657	nt	nt	CCOc1nc(-c2ccc(OC)cc2)ccc1-c1noc(-c2ccncc2)n1
2.6	-0.3%	-0.1	-4.8	0.72	nt	nt	CCC(C)NC(=O)C1c2ccccc2C(=O)N1Cc1cc(OC)ccc1OC (centres undefined)
-0.7	nt	0.5	3.9	0.677	i	1.3	O=S(=O)(c1cccc(Br)c1)N1CCN(CCc2ccccc2)CC1
-0.2	0.0%	-1.6	1.2	0.676	i	7.7	O=C(/C=C/c1ccc(Cl)cc1)N1CCN(c2c(Cl)cccc2[N+](=O)[O-])CC1
5.8	nt	-0.4	-2.1	0.679	i	4.3	COc1ccc(C2=NN3C(C2)c2ccccc2OC3c2cccs2)cc1 (centres undefined)
-2.0	-2.4%	1.2	-5.8	0.648	i	-3.4	O=C(COC(=O)CCC(=O)c1cccs1)NCc1ccccc1
-1.1	0.1%	-0.4	-3.6	0.777	i	3.6	Cc1cc(NC(=O)CSc2nc3c(c(=O)n2CCc2ccccc2)SC(C)C3)no1 (centres undefined)
-2.8	nt	1.4	3.4	0.684	i	-1.9	C[C@@H](NC(=O)[C@@H]1Cc2ccccc2CN1)C(=O)NCC1CCCO1 (some centres undefined)
7.2	8.7%	-5.9	nt	0.656	nt	-0.7	O=C(O)COc1ccccc1C=NNc1ccc([N+](=O)[O-])cc1S(=O)(=O)Nc1ccc(Cl)cc1
4.2	-4.7%	10.3	0.3	0.645	i	-6.8	CCc1nnc(NC(=O)c2cc([N+](=O)[O-])ccc2N2CCOCC2)s1
-0.4	0.3%	7.7	-0.6	0.635	i	0.2	COc1ccc(CC2=C(O)c3ccccc3C(=O)C2=O)cc1
1.9	31.7%	1.0	-3.8	0.696	i	-0.4	CCOC(=O)C1(CC2CCCCO2)CCN(S(=O)(=O)c2ccc(C)s2)CC1 (centres undefined)
-6.8	nt	-260.3	0.4	0.623	i	-0.6	Nc1ccc(-c2nc3cc(N)ccc3o2)cc1
3.0	nt	4.3	1.4	0.696	i	-1.5	CCOc1ccc(-n2c(=O)c3sccc3n(CC(=O)NC3CCCCC3)c2=O)cc1
7.4	nt	nt	-90.7	nt	i	-5.1	CSc1ccc(/C=c2\s/c(=C\C(=O)C(C)(C)C)n(CC(=O)NCCC3=CCCCC3)c2=O)cc1
-4.6	>100µM*	9.7	?	0.716	nt	nt	CCOc1ccc(C2NC(=O)C(C#N)=C(S)N2c2ccc(OC)cc2)cc1OC (centres undefined)
4.2	4.7%	nt	2.8	nt	nt	nt	O=C(O)c1cc(/C=N\O)ccc1OCc1ccccc1
-1.3	nt	-1.3	-0.2	0.643	i	-0.6	CC(C)(C)NC(=O)c1ccccc1NC(=O)C1CC(=O)N(C2CCCCC2)C1 (centres undefined)
4.5	-2.8%	5.6	nt	0.69	i	3.2	CSCCC(NC(=O)c1ccccc1Cl)C(=O)Nc1ccncc1 (centres undefined)

A portion of the library. The share of hits here may be higher or lower than overall.
